MgcRacGAP: inhibition of MgcRacGAP-stimulated Rac1 GTP hydrolysis – biochemical, inorganic phosphate detection, orthogonal assay, confirmation (AID 652142); MgcRacGAP/Rac1F28L GTP hydrolysis, Biomol green phosphate; active compounds read high; test concentration not given here; none was called active though about 1 in 100 pass the limit; inhibition, %; 2,400 tested, under 10 active;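 active means inhibition over three standard deviations or about 65%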;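 further: full inhibition control lacks the GAP enzyme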
Starred values were filed as active, the others as inactive. This is a subset, so the mix of outcomes need not match the whole.

MgcRacGAP	SMILES
27	O=S(=O)(NC1=NCCCCC1)c1ccc2sc(NS(=O)(=O)c3ccc4ccccc4c3)nc2c1
32	Cc1cccc(Nc2n[nH]c(=S)s2)c1C
21	O=C(Nc1ccc(O)cc1)c1cc2ccccc2c(=O)s1
21	CSc1ccccc1NC(=O)CN(C)C(C)C(=O)NCc1ccc2c(c1)OCO2 (centres undefined)
20	COc1ccc(N=C2NC(=O)/C(=C/c3ccc(O)c(OC)c3)S2)cc1
23	CN(C)c1ccc(NC(=O)COC(=O)CNC(=O)c2cccs2)cc1
20	COc1ccc(-n2cnc(=S)[nH]c2=S)cc1
29	O=C(Nc1ccc(O)cc1)c1ccccc1OCc1ccccc1
7	CN(C)S(=O)(=O)c1cccc(NC(=O)CNCC2CCCCC2)c1
22	Cc1cc(Cl)cc2sc(=S)[nH]c12
25	COc1cc(/C=N\NC(=O)c2ccc(Cn3nc([N+](=O)[O-])c(Cl)c3C)o2)ccc1O
25	CCOc1ccc(N)cc1OC
34	Nc1ccccc1Nc1ccccc1
33	COc1cc(/C=N/NC(=O)CCn2nnc3ccccc32)ccc1O
19	Oc1ccc(/C=N/Nc2ccc(C(F)(F)F)cn2)c(O)c1
-6	NS(=O)(=O)c1ccc(Nc2nc(-c3ccc(O)cc3)cs2)cc1
26	Cc1cc2nc3ccc(=[N+](C)C)cc-3sc2cc1N
40	COC(=O)C1=C(C)N(Cc2ccco2)C(=O)C1
52	O=C(O)c1ccc2c(c1)[C@@H]1C=CC[C@@H]1[C@H](c1ccccn1)N2
21	COc1cc(/C=C/C(=O)OCC(=O)N2CCCc3ccccc32)ccc1O
27	COc1cc(/C=N/n2c(C3CCCCC3)n[nH]c2=S)ccc1O
20	CCOC(=O)c1sc(/N=C/c2ccc(O)cc2O)cc1C
33	COc1cccc(CN2CCN(Cc3cc(OC)c(OC)c(OC)c3)CC2)c1OC
30	Oc1cccc2c(NC(=S)Nc3ccc(OC(F)F)cc3)cccc12
13	CN(C)CCNc1ccc(CO)c2sc3ccc(O)cc3c(=O)c12
10	COc1ccc(Oc2c(-c3ccc(O)cc3O)n[nH]c2C)cc1
-6	COCCNC(=O)COc1ccc(Nc2ccccc2)cc1
30	O=C(c1ccc(OCCN2CCCCC2)cc1)c1c(-c2ccc(O)cc2)sc2cc(O)ccc12
15	O=C(N/C(=C\c1ccc(O)cc1)C(=O)N1CCCCC1)c1ccccc1
28	O=C(O)c1ccc(N/N=C/c2c[nH]c3ccccc23)cc1
20	O=C1N/C(=C\c2ccc(O)cc2)C(O)=C1C=NCc1ccccc1
30	O=C(Cn1sc2ccccc2c1=O)Nc1ccc(F)cc1
23	CCN1C(=O)/C(=C2/C=Cc3cc(C)ccc3N2CC)N(C)C1=S
21	Clc1ccccc1CNCc1ccc2c(c1)OCO2
20	COc1ccc(NC2CCCN(C(=O)c3oc(C)cc3C)C2)cc1OC (centres undefined)
22	CN(C)c1ccc(C=c2c3ccccc3n3c2cc(-c2ccc(Cl)cc2)[n+]3C)cc1
29	COc1cc2nc(=S)n(CCCN3CCOCC3)c(N)c2cc1OC
31	Oc1ccc(/C=N/N=C/c2ccc(O)cc2)cc1
18	Oc1cc(Br)ccc1C=Nc1ccc(N2CCCCC2)cc1
25	COc1ccc(C)cc1NCc1cccc(OC)c1OC

The closing 8 entries of the part above lead into the next.
MgcRacGAP	SMILES
23	CCN1C(=O)/C(=C2/C=Cc3cc(C)ccc3N2CC)N(C)C1=S
21	Clc1ccccc1CNCc1ccc2c(c1)OCO2
20	COc1ccc(NC2CCCN(C(=O)c3oc(C)cc3C)C2)cc1OC (centres undefined)
22	CN(C)c1ccc(C=c2c3ccccc3n3c2cc(-c2ccc(Cl)cc2)[n+]3C)cc1
29	COc1cc2nc(=S)n(CCCN3CCOCC3)c(N)c2cc1OC
31	Oc1ccc(/C=N/N=C/c2ccc(O)cc2)cc1
18	Oc1cc(Br)ccc1C=Nc1ccc(N2CCCCC2)cc1
25	COc1ccc(C)cc1NCc1cccc(OC)c1OC
22	CC(=O)N1CCN(c2ccc(NCc3ccc(C(C)C)cc3)cc2)CC1
19	Cc1cc(-c2n[nH]c(=S)n2/N=C/c2cccs2)n[nH]1
29	O=C1/C(=C\c2ccc(O)c(O)c2)N=C2CCCCCN12
26	COc1cc(CNc2ccc3[nH]c(=O)[nH]c3c2)ccc1OCc1cccc(C)c1
33	COc1ccc(NC(C)c2cc(Cl)ccc2O)cc1 (centres undefined)
28	CC1Cc2ccccc2N1C(=O)CNCCCN(C)C (centres undefined)
20	OCCCNC(=S)Nc1ccc(Nc2ccccc2)cc1
28	CN1CCN(C=NC2=NN(c3cccc(C(F)(F)F)c3)CC2)CC1
29	COc1cc(CN2CCC(C(=O)NC3CCCC3)CC2)cc(Br)c1O
35	Clc1cc(Cl)c(OCCCCn2cncn2)c(Cl)c1
24	O=C1C=CC(=O)N1c1ccc(Nc2ccccc2)cc1
19	COc1ccc(NC2CCCN(C(=O)CCCn3cncn3)C2)cc1OC (centres undefined)
54	Cc1ccc(C(C2=C(O)CC(C)(C)CC2=O)C2C(=O)CC(C)(C)CC2=O)s1 (centres undefined)
23	COc1cc(/C=C2\SC(=Nc3c(C)n(C)n(-c4ccccc4)c3=O)NC2=O)ccc1O
33	COc1cc(/C=N/Nc2ccccn2)cc(OC)c1O
21	c1cc2c(cc1CN1CCN(C3CCCCCC3)CC1)OCO2
24	Cc1ccc(NC(=O)CN(C)C2CCCCC2)cc1Cl
37	O=C(COC(=O)c1c2c(nc3ccccc13)/C(=C/c1ccco1)CC2)NC1CCCC1
38	O=C(/C(=C/c1ccccc1)n1cncn1)c1ccc(Cl)cc1Cl
39	Cc1cc(-c2cc(C)c(N)cc2C)c(C)cc1N
25	O=C(CNCc1cccs1)Nc1ccc(N2CCCCCC2)cc1
42	CC1=NN(c2ccc(Cl)c(C(=O)O)c2)C(=O)/C1=C/c1ccc(-c2ccccc2[N+](=O)[O-])o1
28	O=[N+]([O-])c1cccc(CN2CCN(c3cccc4[nH]ccc34)CC2)c1
19	CCCS(=O)(=O)N1CCN(Cc2ccco2)CC1
35	COc1cc(N)ccc1NC(=O)c1cccs1
13	Cc1cc(-c2n[nH]c(=S)n2/N=C/c2sccc2C)n[nH]1
20	COc1cc(/C=N/NC(=O)/C(=C\c2ccc3c(c2)OCO3)NC(=O)c2ccccc2)ccc1O
7	COc1ccc(C(=O)N2CCN(C3CCN(Cc4ccccc4)CC3)CC2)cc1OC
56	O=C(/C=C/c1ccc([N+](=O)[O-])cc1)/C=C/c1ccco1
21	Nc1cc(SCc2ccc([N+](=O)[O-])cc2)ncn1
27	CCCCN(C)C(=O)C1CCN(Cc2ccc(OCc3ccccc3)cc2)CC1
50	O=[N+]([O-])c1cccc(SSc2cccc([N+](=O)[O-])c2)c1
39	CCOC(=O)c1[nH]c2ccccc2c1NC(=S)Nc1ccccc1
13	Cc1cccn2c(NCc3ccc4c(c3)OCO4)c(-c3ccc(O)cc3)nc12
21	COc1cc(/C=N/Nc2nncn2/N=C/c2ccc(O)c(OC)c2)ccc1O
34	COc1cccc(CNCc2ccccc2Br)c1OC
29	C/C(CC(=O)Nc1ccc(N(C)C)cc1)=N\NC(=O)c1ccc(F)cc1
29	O=C(Cc1ccc(Cl)cc1)N/N=C/c1ccc(O)c(O)c1
22	CN(C)CCCN1c2ccc3ccccc3c2Sc2cccc(Cl)c21
25	COCCNCc1nc2sc(C)c(-c3ccccc3)c2c(=O)[nH]1
13	CN(C)c1ccc(NC2=C([N+](=O)[O-])CS(=O)(=O)C2)cc1
25	Cn1c(=O)c2[nH]c(=S)n(Cc3ccccc3)c2n(C)c1=O
11	COc1ccc(-c2cn[nH]c2-c2ccc(O)cc2O)cc1OC
20	CN(C)c1ccc(N=Cc2nc(-c3ccccc3)oc2OC(=O)c2cccc(Br)c2)cc1
28	O=C(CSc1nnnn1C1CC1)N1CCN(c2ccc(O)cc2)CC1
24	S=c1[nH]c2ccccc2n2c(=S)[nH]nc12
16	COc1cc(/C=N\NC(=O)CC(=O)NCCc2ccccc2)ccc1O
17	CC1CCCC(N2CCN(C(=O)c3ccc([N+](=O)[O-])cc3)CC2)C1 (centres undefined)
23	Oc1ccc2ccc(Cl)cc2c1
32	O=c1cc(CN2CCOCC2)c2ccc(O)c(O)c2o1
9	CCS(=O)(=O)NC(C)C(c1cccs1)N1CCN(c2ccc(OC)cc2)CC1 (centres undefined)
15	COc1cc(/C=C2/C(=O)NN(c3ccc(Cl)cc3)C2=O)cc(Br)c1O
18	COc1cc(/C=N/NC(=O)c2cc(C)oc2C)ccc1O
13	CC1CC(C)CN(C2CCN(Cc3cccnc3)CC2)C1 (centres undefined)
21	CCN1CCN(c2ccc(N=Cc3ccccc3O)cc2)CC1
-1	O=C(Cn1cc(C(F)(F)F)ccc1=O)N/N=C/c1ccc(O)cc1
-1	CC[n+]1c(/C=C/c2ccc(N(C)C)cc2)ccc2ccccc21
21	CC(C)[C@H](N[C@@H](C)c1ccccc1)c1c(O)ccc2ccccc12
42	Cn1cccc1CC(=O)N/N=C/C=C/c1ccco1
36	COc1ccc(N2CCC(CNC(=S)Nc3cccc(C)c3)C2)cc1 (centres undefined)

4 entries out of the list above, sorted by their value in MgcRacGAP, highest first.
MgcRacGAP	SMILES
27	COc1cc(/C=N/n2c(C3CCCCC3)n[nH]c2=S)ccc1O
26	Cc1cc2nc3ccc(=[N+](C)C)cc-3sc2cc1N
22	CC(=O)N1CCN(c2ccc(NCc3ccc(C(C)C)cc3)cc2)CC1
20	COc1ccc(NC2CCCN(C(=O)c3oc(C)cc3C)C2)cc1OC (centres undefined)

Further compounds follow:
MgcRacGAP	SMILES
17	CN(C)c1ccc(C(=O)NC2(N3CCC3=O)CCCC2)cc1
26	COc1ccc2c(c1)-c1nc(/N=C/c3cccc(OC)c3O)sc1CC2
5	CC(C)(C)c1cc(C(=O)N/N=C/c2ccc(O)cc2)n(-c2ccccc2)n1
5	Cc1cc(-c2n[nH]c(=S)n2/N=C/c2ccccc2[N+](=O)[O-])n[nH]1
21	Nc1ccc(N=Nc2ccc(O)cc2)c(N)n1
19	COc1ccc(NC2CCCN(C(=O)c3ccccc3N3CCOCC3)C2)cc1OC (centres undefined)
14	Nc1ccc2c(c1)Nc1ccccc1CC2
31	CCOc1cc(/C=N/NC(=O)CSc2cccc3cccnc23)ccc1O
55	O=C1/C(=C\c2ccc([N+](=O)[O-])cc2)CS(=O)(=O)C/C1=C/c1ccc([N+](=O)[O-])cc1
31	COc1cc(C)c(N)cc1C(C)C
21	CCN(CC)CCCNCC(=O)Nc1cc(C)on1
28	COc1ccc(NC2CCCN(C(=O)c3ccc(C(C)=O)s3)C2)cc1 (centres undefined)
25	O=C1CC(c2ccccc2)CC(O)=C1C=Nc1ccc(O)cc1 (centres undefined)
36	CCCCNc1nc(=S)[nH]c2cc(OC)c(OC)cc12
18	Oc1ccc(/C=N/Nc2nccnc2Cl)c(O)c1
16	N#C/C(=C/c1ccc(N2CCOCC2)o1)c1ccc(Cl)cc1
29	COc1ccc(CN2CCN(C(C)C(=O)N(C)Cc3cccc(F)c3)CC2)cc1OC (centres undefined)
46	Cc1sc2ccc3sccc3c2[n+]1C
30	COc1ccc(NC(=O)c2cccc(-c3ccc(O)cc3)c2)cn1
14	CCN(CC)S(=O)(=O)c1cccc(-c2n[nH]c(=S)n2/N=C/c2ccc(OC(F)F)cc2)c1
24	N#CC1(Nc2ccc(-c3ccc(NC4(C#N)CCCC4)cc3)cc2)CCCC1
25	COc1ccccc1C1Nc2cccc3cccc(c23)N1
24	O=S(=O)(O)c1cc(O)c(N=Nc2ccc(O)cc2O)c2ccccc12
25	CCN(CC)CCCNc1nc2ccccc2c2[nH]c3ccc(OC)cc3c12
6	CN(C)/C=C/c1oc2ccc(O)cc2c1[N+](=O)[O-]
15	CN(C)/N=C/c1ccc(N2CCOCC2)cc1
27	CCOc1cc(/C=C2\CN(C)C/C(=C\c3ccc(O)c(OCC)c3)C2=O)ccc1O
38	N#CC1=C(S)N(c2ccc(F)cc2)C2(CCCCC2)NC1=O
26	COc1cc(OC)cc(C(=O)N2CCN(Cc3ccc4c(c3)OCO4)CC2)c1
35	Nc1cc2c(cc1N)-c1ccccc1C2
31	CCOc1c(C=C(C#N)C#N)c2ccccc2n1CC
3	CCOc1cc(/C=N/NC(=O)CCn2nc(C)cc2C)ccc1O
26	COc1ccc(-n2cccc2/C=C/[N+](=O)[O-])cc1
26	Cc1nc(/N=C(\N)NC(=O)N2c3ccccc3Sc3ccccc32)nc2ccccc12
32	COc1cccc(Nc2nc(-c3ccc(O)cc3)cs2)c1
19	CN1CCN(CCCN2c3ccccc3Sc3ccc(Cl)cc32)CC1
18	Oc1ccc(Nc2ncnc3c2oc2ccccc23)cc1
51	O=C(O)c1ccc(-c2ccc(/C=c3/sc4nc5ccccc5n4c3=O)o2)cc1Cl
28	CC1=CC(C)(C)N(C(=O)CNC2CCCC2)c2cc(C)ccc21
16	CCc1cc(-c2[nH]ncc2-c2nc3ccccc3n2C)c(O)cc1O

Filtered by structure: those above with a cyano group
MgcRacGAP	SMILES
16	N#C/C(=C/c1ccc(N2CCOCC2)o1)c1ccc(Cl)cc1
24	N#CC1(Nc2ccc(-c3ccc(NC4(C#N)CCCC4)cc3)cc2)CCCC1
38	N#CC1=C(S)N(c2ccc(F)cc2)C2(CCCCC2)NC1=O
31	CCOc1c(C=C(C#N)C#N)c2ccccc2n1CC

(further entries)
MgcRacGAP	SMILES
28	COc1ccc(CN2CCC(C(N)=O)CC2)cc1OCc1ccccc1
27	CCCCN(C)C(=O)C1CCN(Cc2cccc(OCc3ccccc3)c2)CC1
19	CCn1c(C)nc2cc(C(=O)N/N=C/c3ccc(OC)c(O)c3)ccc21
91	O=C(O)c1cc(N2C(=O)C=CC2=O)cc(N2C(=O)C=CC2=O)c1
13	CN(C)c1cc2c3ccccc3n(C)c2cc1N
29	COc1ccc(C2CC(c3ccc4ccccc4c3)=NN2C(=O)CNC2CCCCC2)cc1 (centres undefined)
29	COc1cc(NC(C)CCCNC(C)C)c2ncccc2c1OC (centres undefined)

Some values from above:
O=C(Cn1sc2ccccc2c1=O)Nc1ccc(F)cc1 | MgcRacGAP: 30
N#C/C(=C/c1ccc(N2CCOCC2)o1)c1ccc(Cl)cc1 | MgcRacGAP: 16
O=C(N/C(=C\c1ccc(O)cc1)C(=O)N1CCCCC1)c1ccccc1 | MgcRacGAP: 15
